NPYLR7 agonist – mosquito NPYLR7 agonism; HEK293T NPYLR7/Galpha15, GCaMP6s calcium fluorescence; activation, % at 10 µM; AID 1259423; 0.15% of 270,000 active; in the data active = activation above about 40%;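 also: 0% = vehicle and 100% = reference agonist at the receptor; some compounds past the cut are filed as inactive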
NPYLR7 agonist max-min – recorded beside NPYLR7 agonist, whose call it bears; activation, %; measured here: Max-Min RFU normalised activation; some inactives read as strong as hits;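 span of the calcium signal over five minutes; 0% = vehicle and 100% = native peptide agonist; compound fluorescence can raise it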
Starred values were filed as active, the others as inactive; & = joins results of further samples.

SMILES	NPYLR7 agonist	NPYLR7 agonist max-min
Cc1nn(-c2cccc(F)c2)c(N2CCN(C)CC2)c1CN(CCC(C)C)C(=O)c1ccccc1Br	-3.5	1.5
Cc1cc(C(=O)NC2CCSc3c(F)cccc32)cc(S(=O)(=O)N(C)C)c1C (stereo not drawn)	2.4	-0.2
c1ccc(-c2nc3ncccn3c2CN2CCCC2c2ccccn2)cc1 (stereo not drawn)	-0.7	-6.7
N#CCC[P+](c1ccccc1)(c1ccccc1)c1ccccc1	-2.0	3.8
CCOCCOc1nc(-c2cccs2)n(-c2ccc(NC(=O)C3CCC3)cc2)n1	19.0	17.5
CSc1ccc(-c2nccn2CCn2nc(C)cc2C)cc1	0.8	-3.8
Nc1ncccc1OCc1nc(COc2ccccc2)no1	2.2	0.1
NC(=O)C1CCN(C(=O)c2ccc(OCc3ccncc3)cc2)CC1	9.9	6.5
Cc1csc(S(=O)(=O)C(C)C(=O)N(C)C)n1 (stereo not drawn)	2.5	0.7
CCOC(=O)C1C(=O)C=C(c2cccc(OC)c2)CC1c1ccc(OC)cc1 (stereo not drawn)	2.4	5.8
CN(C)CCN(C(=O)CCc1ccccc1)c1nc2ccc(Br)cc2s1	-2.2	-6.2
O=c1c2ccsc2ncn1Cc1noc(-c2cccs2)n1	-1.1	-3.9

The list goes on; it opens with the 2 that closed the last part.
SMILES	NPYLR7 agonist	NPYLR7 agonist max-min
CN(C)CCN(C(=O)CCc1ccccc1)c1nc2ccc(Br)cc2s1	-2.2	-6.2
O=c1c2ccsc2ncn1Cc1noc(-c2cccs2)n1	-1.1	-3.9
CCCc1c(C)nc2c(-c3ccc(Cl)cc3)c(C)[nH]n2c1=O	-16.2	-19.1
Cc1ccc(S(=O)(=O)c2nnn3c2nc(N2CCOCC2)c2sccc23)cc1	2.1	4.5
Cc1cc2c(cc1C(=O)N1CCC(O)(CN(C)C)C1)OCCO2 (stereo not drawn)	1.6	0.2
COc1ccc(NC(=O)CSc2nc(=O)n3ccccc3n2)c(OC)c1	1.2	-0.1
Cc1nnsc1C(=O)N1CCCC(CCC(=O)Nc2ccc(C(F)(F)F)cc2)C1 (stereo not drawn)	7.9	10.0
Cc1ccc2nc(C)c(C(=O)N3CCOC(CCN)C3)cc2c1 (stereo not drawn)	24.8	10.5
Cc1cc(C)cc(NC(=O)c2ccccc2NS(=O)(=O)c2c(C)c(C)cc(C)c2C)c1	0.1	0.8
CCCCC(=O)N1CC2(C)CN(C(=O)CCCC)CC(C)(C1)C2=O	4.4	2.5
CCCc1cc(C(=O)NC2CCN3CCCCC23)sc1C (stereo not drawn)	6.7	5.4
CC(=O)N1CCN(C[C@@H]2C=C(C)[C@H](Cc3nnc(C(C)(C)C)o3)C[C@H]2C(C)C)CC1	-9.2	-13.5
O=C(NCCCCc1ccccn1)c1ccccc1C1CCNC1 (stereo not drawn)	-2.3	-11.4
CC1CN(c2cc(Oc3cccc(Cl)c3)ncn2)CCN1C(=O)c1ccc(Cl)cc1Cl (stereo not drawn)	9.7	9.2
O=C1C(=O)N(CCN2CCOCC2)C(c2ccc(Cl)c(Cl)c2)C1=C(O)c1ccccc1 (stereo not drawn)	12.0	16.6
Cc1cc(N2CCN(Cc3ccccc3)CC2)nc(-c2cccnc2)n1	-10.1	-13.8
CN1CCC(CN(CCc2ccccc2)C(=O)c2ccc3c(c2)OCCO3)CC1	3.4	3.4
COc1ccc(/C=N\NC(=O)c2cc(-c3ccccc3)nc3ccccc23)cc1O	1.3	0.4
COc1cccc(C(=O)NCc2nnc(SCC(=O)Nc3nccs3)n2-c2cccc(C(F)(F)F)c2)c1	7.2	5.6
Cc1ccn2c(NC(=O)COc3ccc(Cl)cc3)c(-c3cccc(F)c3)nc2c1	-12.0	-9.6
C=C(Br)CN(CC#N)Cc1ccccc1	7.8	5.8
CC(C)c1ccc(Oc2cnn(-c3cccc(Cl)c3)c(=O)c2Nc2cccc(C(=O)NCCc3ccccn3)c2)cc1	0.8	1.7
CCCCCCNC(=O)c1cc(-c2ccc(OC)cc2)n(-c2cccc(OC)c2)c1C	-9.6	-11.2
CC(C)Nc1ccnc(-c2ccc(S(C)(=O)=O)cc2)n1	-3.9	9.6
CCCCOCC(=O)Nc1cc(Br)cn(C)c1=O	-4.3	-10.1
CCN(C(=O)C(=O)c1c(C)n(C)c2ccccc12)c1ccc(OC)cc1	15.7	4.4

Six neighbouring records from above, quoted:
SMILES	NPYLR7 agonist	NPYLR7 agonist max-min
C=C(Br)CN(CC#N)Cc1ccccc1	7.8	5.8
CC(C)c1ccc(Oc2cnn(-c3cccc(Cl)c3)c(=O)c2Nc2cccc(C(=O)NCCc3ccccn3)c2)cc1	0.8	1.7
CCCCCCNC(=O)c1cc(-c2ccc(OC)cc2)n(-c2cccc(OC)c2)c1C	-9.6	-11.2
CC(C)Nc1ccnc(-c2ccc(S(C)(=O)=O)cc2)n1	-3.9	9.6
CCCCOCC(=O)Nc1cc(Br)cn(C)c1=O	-4.3	-10.1
CCN(C(=O)C(=O)c1c(C)n(C)c2ccccc12)c1ccc(OC)cc1	15.7	4.4

Continued.
SMILES	NPYLR7 agonist	NPYLR7 agonist max-min
CCOC(=O)c1nn(-c2ccc(Cl)cc2)c(=O)c2c(NC(=O)C(C)Oc3ccccc3)scc12 (stereo not drawn)	-5.9	-4.1
CNc1cc(-c2ccc(OC)c(OC)c2)ncn1	0.0	-3.0
CCOc1ccccc1C(=O)N(C(=O)N1CCCCC1)c1ccc(C)cc1	7.7	7.5
Cc1cc(C(=O)NCCN=C2NS(=O)(=O)c3ccccc32)ccc1[N+](=O)[O-]	15.4	9.1
Cc1cc(O)c(C(c2ccncc2)N2CCN(c3ccccc3F)CC2)c(=O)n1Cc1ccccc1 (stereo not drawn)	0.2	-3.2
CCN(CC)c1ccc(/C=N\Nc2nc(N3CCCCC3)nc(N3CCCCC3)n2)cc1	-6.9	-14.4
O=C1CCCN1c1ccc(Cn2nc3c(S(=O)(=O)N4CCCCC4)cccn3c2=O)cc1	3.9	-0.4
COC(=O)c1ccc(CSc2ccc(NC(=O)c3ccccc3)nn2)o1	2.2	4.4
COc1ccccc1Cn1c(C(=O)NCc2ccncc2)cc2ccsc21	12.5	21.4
CCOC(=O)c1c(NC(=O)c2cc(OC)cc(OC)c2)c(-c2ccc3c(c2)OCO3)cn1C	10.0	13.1
CCCCn1c(CN2CCCC(C(=O)c3cccs3)C2)cnc1S(=O)(=O)CC (stereo not drawn)	1.8	0.1
COc1ccc(NC2CCCN(C(=O)c3csc(Cc4ccccc4)n3)C2)cc1 (stereo not drawn)	2.6	-2.0
CC1(C(=O)Nc2cnc3ccccc3c2)CCN1C(=O)Cc1ccc(-c2ccccc2)cc1 (stereo not drawn)	-3.0	-6.8
C/C(=N\Nc1nc(-c2ccccc2)c2cc(Cl)ccc2n1)c1ccccc1	-6.4	-9.5
CC(=O)Nc1ccc(C(=O)N(C)Cc2ccsc2)cc1	5.1	2.3
NC(=O)CCN1CCCC1C(N)=O (stereo not drawn)	1.3	-2.8
O=C(c1cccc2ccnn12)N1CCC(O)(Cn2ccnc2)CC1	5.1	3.9
Cn1c(SCC(=O)Nc2ccccc2)nnc1C1CC1	5.7	0.3
O=c1[nH]c(-c2ccnc(OCC(F)(F)F)c2)nc2sc3c(c12)CCCCC3	5.0	5.1
CC(C)CCN(Cc1cc(F)ccc1F)Cc1cccn1Cc1ccc(C(F)(F)F)cc1	3.3	9.6
CCn1c(C)cc(C(=O)O)c1C	-7.0	-10.8
CCN(CC)C(=O)Oc1ccc2c(ccn2Cc2ccc(C(F)(F)F)cc2)c1-c1ccc(F)c(Cl)c1	10.9	11.5
COc1ccc(C(C)=O)cc1CN1C(=O)C(C)ON=C1c1cccc(C)c1 (stereo not drawn)	3.0	17.7
Cc1oc(-c2cc(F)ccc2F)nc1CN(Cc1cnn(C)c1)C(C)C	-8.1	-13.5

Structural class: the compounds so far containing an NH in an aromatic ring
SMILES	NPYLR7 agonist	NPYLR7 agonist max-min
CCCc1c(C)nc2c(-c3ccc(Cl)cc3)c(C)[nH]n2c1=O	-16.2	-19.1
O=c1[nH]c(-c2ccnc(OCC(F)(F)F)c2)nc2sc3c(c12)CCCCC3	5.0	5.1

Given bar-delimited: 2 of the compounds above
compound | NPYLR7 agonist | NPYLR7 agonist max-min
CC1(C(=O)Nc2cnc3ccccc3c2)CCN1C(=O)Cc1ccc(-c2ccccc2)cc1 (stereo not drawn) | -3.0 | -6.8
NC(=O)CCN1CCCC1C(N)=O (stereo not drawn) | 1.3 | -2.8

(continued)
SMILES	NPYLR7 agonist	NPYLR7 agonist max-min
CNC(=O)[C@@]1(OCc2cccc(C(F)(F)F)c2)CC(OCc2ccc(F)cc2)[C@@H]2OC(C)(C)O[C@@H]2C1 (stereo partly drawn)	28.6	30.0
CCCNC(=O)N(CCN1CCOCC1)Cc1nccn1Cc1ccc(OC)cc1	3.8	13.2
Cc1ccc(-n2c(SCC(=O)OCc3ccccc3)nc3c(c2=O)SCC3)cc1	-1.2	-3.3
CC(C)CCCNc1nc(N2CCOCC2)nc(N2CCOCC2)n1	5.0	3.8
CN(C)c1ccc(NC(=O)CC(NC(N)=O)c2ccccc2F)cn1 (stereo not drawn)	-4.0	-1.9
CCc1cc(N(C)C)nc(SCc2cccc(C(=O)NCc3cccnc3)c2)n1	-2.8	6.2
O=C(Nc1ccccc1F)c1c(O)c2ccccc2[nH]c1=O	26.4	22.8
Cc1cccc(S(=O)(=O)NC(=O)C2(C)CCN2C(=O)Cc2cccs2)c1 (stereo not drawn)	-4.5	-11.0
CC(C)(C)c1ccc(S(=O)(=O)NCCOCC(F)(F)C(F)F)cc1	-16.4	-23.0
CC(Cl)=CCSc1nc2c(c(=O)[nH]c(=O)n2C)n1Cc1cccc(C)c1	10.7	9.1
Cc1cccc(-c2nc(C)c(C(C)C)c(N3CCN(C(=O)COCc4ccccc4)CC3)n2)c1	1.6	5.9
CCOC(=O)c1c(NC(=O)c2ccc(C)cc2)sc(C(=O)Nc2ccccc2C(F)(F)F)c1C	-8.7	-16.0
CN(C)c1ccc(/C=N\Nc2ncnc3nc[nH]c23)cc1	13.6	22.1
COc1cccc([C@@H]2CCN(Cc3cccn3-c3nccs3)C[C@H]2O)c1	-0.5	-1.6
CC1=NC2=C(C(=O)CCC2)C(c2coc3ccccc3c2=O)C1C(=O)OC1CCCC1 (stereo not drawn)	-6.2	-16.7
CN(C[C@@H]1[C@H](O)[C@@H]2O[C@H]1c1ccccc12)C(=O)c1cc2ccccc2s1	-0.1	9.6
COC(=O)c1ccc(CNC(=O)c2cc(COc3ccc(Cl)cc3OC)on2)cc1	-1.3	-3.7
O=C(Nc1ccc(N2CCN(C(=O)CCC3CCCC3)CC2)nc1)c1ccco1	6.0	-2.0
CCCn1c(C)cc(/C=C/C(=O)Nc2ccccc2)c1C	4.5	2.5
CCCCc1ccc(C(=O)N2CCC3(CC2)NC(=O)c2cc(F)c(F)cc2N3)cc1	2.4	19.7
CC(C)c1ccc(-c2noc(CN(C)c3ccccc3)n2)cc1	-0.2	-3.3
C=CCN(Cc1ccc(C(F)(F)F)nc1)Cc1ccccc1OC	8.4	5.1
Cc1nnc(CNC(=O)C2CCC(=O)N(CCc3ccc(Cl)cc3)C2)o1 (stereo not drawn)	-3.0	-3.7
O=C(NN=C1CCc2ccccc21)C1COc2ccccc2O1 (stereo not drawn)	2.5	7.4
CCc1nc2c(OCc3cccc(OC)c3)cccn2c1N(C)C(=O)c1ccc2c(c1)OCO2	-18.8	7.5
COc1cccc(-c2nnc3ccc(OCCNC(=O)CC4CCCC4)nn23)c1	4.1	1.6
Cc1c(NC(=O)Cc2ccccc2F)cccc1-n1cnnn1	1.0	-2.4
COc1ccc2c(c1)C1(SCCN1C(=O)c1cccs1)C(=O)N2Cc1ccccc1Cl (stereo not drawn)	14.4	12.3
O=C(CSc1nc2ccccc2s1)NNC(=S)NC1CCCCC1	8.6	10.3
Cc1nccn1CCC1CCCCN1C(=O)CN1C[C@@H](C)O[C@@H](C)C1 (stereo partly drawn)	15.9	29.0
CC(C)NC(=O)C(C1CCCC1)N1CCN(C(=O)Nc2cccc(Cl)c2)CC1 (stereo not drawn)	-7.9	-2.5
CCC(Oc1ccccc1Cl)C(=O)Nc1cccnn1 (stereo not drawn)	1.6	1.5
CCc1cc(=O)[nH]c(-n2nc(C)cc2NC(=O)C2CC(=O)N(c3ccc(C)cc3)C2)n1 (stereo not drawn)	3.0	-2.3
O=C(NCc1ccccc1)C1COC2(CCN(C(=O)c3cccc(Cl)c3)CC2)N1C(=O)c1cccc(F)c1 (stereo not drawn)	1.9	13.6
CN1CCC(NC2CC(=O)N(CCc3cccc(Cl)c3)C2)CC1 (stereo not drawn)	9.7	0.4
COc1cccc(-c2cc(-c3ccc(C(=O)NCC4CCCO4)cc3)[nH]n2)c1 (stereo not drawn)	5.0	7.8
Cc1nccnc1N1CCC(n2cc(C(=O)NCC(C)C)nn2)CC1	-1.0	9.6
COc1ccc(-c2cc(NC=O)c3ncc(-c4ccccc4)n3c2)cc1OC	-4.0	-9.2
Cc1cc(=O)n(CC(=O)Nc2cccc([N+](=O)[O-])c2)c(-n2nc(C)cc2C)n1	4.6	1.4
Oc1cccc(-c2cn(CC3(c4cccc(F)c4)CCOCC3)nn2)c1	31.6	22.1
CC1CN(c2cc(Oc3ccc(Cl)cc3)ncn2)CCN1C(=O)COc1ccccc1 (stereo not drawn)	-10.3	-2.9
OC[C@H]1CCN(c2nccc3occc23)C[C@H]1O	19.2&1.9	16.1&-2.7
COc1ccc(-c2csc(=Nc3cc(F)ccc3F)n2CC2CCCO2)cc1 (stereo not drawn)	-4.8	-9.8
CC1=CC[C@@H]2CN(C(=O)c3c(-c4ccccc4)noc3C)C[C@@H]2C1	5.8	3.1
CCN(C(=O)CCCNC(=O)c1ccc(Cl)cc1)c1ccc(OC)nc1	0.7	-1.3
CCCCOc1ccc(NC(=O)N2CC(=O)N3CCc4cc(OC)c(OC)cc4C3C2)cc1 (stereo not drawn)	-3.9	-3.9
COc1ccc(Cl)cc1S(=O)(=O)NCc1ccc(C)cc1	3.2	6.4

Some of the compounds tested. The share of hits here may be higher or lower than overall.
